# RanGTP-Impb inh – inhibitors of RanGTP-importin-beta interaction, primary screen, biochemical, FRET, CFP-Ran, YFP-importin-beta, homogeneous | Ran GTPase (GTP-bound) - importin-beta complex | cell-free CFP-Ran/YFP-importin-beta FRET ratio | inhibition, % (test concentration not listed) | 300,000 compounds, 1.1% hits;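 active means most replicates above 15%; inconclusive means exactly half above 15%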;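 further: 0% = DMSO wells and 100% = Ran loaded with GDP instead of GTP; wells of about 40 µL received 100 nL stock; the first replicate is given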
# UCH37 inh – inhibitors of human UCH37 deubiquitinase, primary screen, biochemical, Ub-AMC cleavage, fluorescence. Ubiquitin carboxyl-terminal hydrolase isozyme L5 (Homo sapiens), Q9Y5K5. purified proteasome/UCH37. inhibition, % (no concentration beside the values). 330,000 compounds, 0.33% hits. AID 588478, 2011;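 active means mean of two replicates above 20%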;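 further: 0% = compound-free wells with enzyme and 100% = wells lacking proteasome; stock transfer was 100 nL into about 20 µL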
# Target sequence (Q9Y5K5 whole entry, looked up): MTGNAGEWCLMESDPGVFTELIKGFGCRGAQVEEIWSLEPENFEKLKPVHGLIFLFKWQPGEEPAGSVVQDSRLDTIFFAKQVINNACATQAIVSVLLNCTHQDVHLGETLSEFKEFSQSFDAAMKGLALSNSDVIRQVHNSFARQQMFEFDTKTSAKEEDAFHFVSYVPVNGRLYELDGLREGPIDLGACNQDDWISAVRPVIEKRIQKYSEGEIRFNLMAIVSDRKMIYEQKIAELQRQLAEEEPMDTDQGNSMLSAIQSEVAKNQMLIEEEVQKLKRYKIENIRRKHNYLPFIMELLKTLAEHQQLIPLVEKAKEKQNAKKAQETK
#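 Assay system: Proteasome-bound UCH37. Buffer or medium: pH 7.4 Tris-HCl (50 mM) with ovalbumin, ATP-MgCl2, DTT. Incubation: 30 min preincubation with enzyme, 25 min cleavage at room temperature. Measured by: fluorescence, ex 355 nm, em 460 nm. Read-out basis: percent inhibition. Control set: wells without proteasome as full block, compound-free enzyme plus substrate as uninhibited.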
# Calb FLC – C. albicans growth inhibition with fluconazole, primary screen, CaCi-2 strain, Alamar Blue fluorescence; C. albicans CaCi-2 (fluconazole-resistant clinical isolate) + fluconazole, 48 h; growth inhibition, % (no concentration beside the values); 300,000 compounds, 0.57% hits;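 active means most replicates above 75%; inconclusive means exactly half above 75%; inactive means most below 75%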;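 further: all wells also contain fluconazole at 8 µg/ml as a sub-toxic cotreatment; 0% = median of DMSO wells and 100% = median of geldanamycin control wells; wells of about 8 µL received 7.5 nL stock; the first replicate is given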
# LANA-H2B inh – blockers of LANA interaction with H2A/H2B – biochemical, FP readout, HTS, primary screen; Protein LANA1 (Human herpesvirus 8 type P (isolate GK18)), Q9QR71; AID 2629, 2010; inhibition, % (no concentration beside the values); cell-free LANA-H2A/H2B peptide, fluorescence polarization; 320,000 compounds, 0.6% hits; in the data active means inhibition mostly above about 10%, no sharp cut-off; inactive means mostly below about 6.7%;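 further: stock transfer was 7.5 nL into about 10 µL; 0% = median of vehicle wells and 100% = median of positive control wells; one replicate is shown; the record names a cut of 25% in any replicate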
# Beta2AR agonist – beta2AR agonists driving receptor internalization, primary screen, cell-based, FAP fluorogen, flow cytometry. Beta-2 adrenergic receptor (Homo sapiens), P07550. Am2.2-beta2AR cells; reference of the scale not given here. response, % (test concentration not listed). 340,000 compounds, 0.43% hits;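 active means response above a set limit, near 3 SD of response in nonfluorescent compounds, cut at about 42% in these data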;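 further: stock transfer was 100 nL into about 11 µL; a reference agonist was the positive control; negative values mostly stem from fluorescent compounds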
# Target sequence (P07550 whole entry, looked up): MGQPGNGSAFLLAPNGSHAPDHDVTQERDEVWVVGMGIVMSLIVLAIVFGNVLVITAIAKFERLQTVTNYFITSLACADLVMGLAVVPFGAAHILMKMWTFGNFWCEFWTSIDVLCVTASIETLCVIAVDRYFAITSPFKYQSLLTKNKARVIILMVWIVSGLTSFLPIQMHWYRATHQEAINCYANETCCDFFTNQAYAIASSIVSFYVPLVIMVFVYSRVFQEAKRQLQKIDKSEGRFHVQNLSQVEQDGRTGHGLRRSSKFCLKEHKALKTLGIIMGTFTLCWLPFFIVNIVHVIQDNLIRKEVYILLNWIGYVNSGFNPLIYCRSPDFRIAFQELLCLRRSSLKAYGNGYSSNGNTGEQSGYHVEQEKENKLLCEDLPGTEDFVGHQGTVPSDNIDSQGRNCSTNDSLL
# Bfl-1 A1 inh – caspase 3/7 activation in MEF A1-2A-BIM cells, primary screen, A1 inhibitor project, cell-based, luminescence, HTS. Caspase-Glo 3/7 luminescence, 3 h; percent of clofoctol response, vehicle zero. caspase activation, % (no concentration beside the values). 330,000 compounds, 0.066% hits. AID 2462, 2010;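 active means over half of replicate activation scores above 10%, or exactly half above 10 with the replicate mean above 10; inconclusive means replicate mean below 10 yet half the replicates above 10; inactive means over half of replicates below 10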;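 further: wells of about 30 µL received 50 nL stock; many hits fall short of the cut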
# Beta apoptosis – inhibitors of cytokine-induced beta cell apoptosis, primary screen, luminescence; protection from apoptosis, % (concentration not given with the values); 300,000 compounds, 0.8% hits; INS-1E cytokine-induced death, ATP luminescence, 48 h; percent of positive-control rescue, neutral wells zero; AID 435005, 2010;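 active means all replicates at 75% or more, or half of them and the mean; inconclusive means half reach 75% but not the mean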;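 further: 0% = cytokine-treated negative control wells and 100% = positive control rescue; higher means more ATP so stronger rescue from cytokine killing; wells of about 40 µL received 100 nL stock; the first replicate is given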
# T cruzi repl – inhibitors of intracellular T. cruzi growth, primary screen, luminescence, NIH3T3 host cells | T. cruzi beta-gal in NIH3T3, 90 h | 300,000 compounds, 1.4% hits | inhibition, % (no concentration beside the values);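 active means mean inhibition across valid replicates above about 55%, limit read from the data; inconclusive means mean below that limit but half or more replicates reach it; inactive means mean below it, under half of replicates reach it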;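 further: signal also drops with host cell toxicity which is not excluded here; 0% = plate median of DMSO wells and 100% = zero luminescence signal; higher percent means less beta-gal luminescence so fewer parasites; stock transfer was 50 nL into about 50 µL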
# * hit, by the source's call; ? = inconclusive; . = no result given.
canonical_smiles	Beta2AR agonist	UCH37 inh	Beta apoptosis	RanGTP-Impb inh	LANA-H2B inh	T cruzi repl	Calb FLC	Bfl-1 A1 inh
Cc1nc(C)c(-c2ccnc(/N=C/NO)n2)s1	-6.7	.	-3.9	2.9	3.9	-3.5	3.9	0.1
O=C(CSc1nnc2ccccn12)c1ccc(Cl)cc1	-7.3	5.0	-1.3	3.8	-1.8	-29.0	29.4	0.1
O=C(Nc1cccc(Oc2ccc3c(c2)C(=O)NC3=O)c1)c1ccco1	-18.5	5.7	-5.5	-1.3	-1.1	-16.5	-3.6	-1.6
Cc1nc(SCC(=O)Nc2cccc(S(=O)(=O)N3CCOCC3)c2)nc(C)c1C	-5.0	0.7	-3.0	.	0.8	.	.	0.3
CC(=O)c1c(-c2ccc(Cl)cc2Cl)noc1C	-3.7	0.0	0.3	3.3	1.3	-9.8	-6.9	0.3
Cc1ccc(S(=O)(=O)NC(C)C(c2cccs2)N2CCN(C)CC2)cc1 (stereo not given)	1.9	5.9	2.2	3.7	2.4	6.6	4.7	1.5
COc1ccc(C(=O)Nc2ccccc2-c2ccccc2)cc1Cl	-10.4	-0.4	0.3	3.9	-1.7	6.7	12.6	-0.1
Cc1cccnc1Nc1nc(-c2ccc(F)cc2)cs1	3.8	1.7	.	-0.8	3.4	22.8	-65.7	-5.6
C=CCNC(=S)NN(c1ccccc1)c1ccccc1	3.1	1.7	.	-0.4	-8.6	-4.0	-6.1	-0.2
O=C(COc1cc(O)c2c(=O)cc(-c3ccccc3)oc2c1)c1ccccc1	-2.5	-5.5	2.0	-1.7	-1.1	21.9	17.2	-3.7
COc1ccc(N2CCN(C(=O)CSc3ncnc4scc(-c5ccc(C)cc5)c34)CC2)cc1	-0.4	3.5	4.7	-2.1	-2.5	75.8*	-15.3	0.1
COc1ccc(CN2C(=O)NC3(CCOc4ccccc43)C2=O)cc1F (stereo not given)	2.8	3.9	3.5	?	3.2	-22.9	-11.8	0.0
CN(Cc1ccco1)S(=O)(=O)c1nnc(NC(=O)c2ccccc2Cl)s1	2.5	5.5	0.6	-0.8	5.3	-4.7	-1.7	-0.8
Cc1c(NC(=O)c2cc(-n3cnnc3)ccc2Cl)cccc1-c1nc2ccccc2s1	-4.5	4.7	4.0	9.3	2.7	14.1	-44.8	-1.5
CCCCN1Cc2c(nc3cc(-c4ccco4)[nH]n3c2=O)C1=O	-5.1	.	-7.5	-0.6	6.0	-16.4	-16.6	-0.1
COC(=O)c1sccc1-c1ccc(C(=O)Nc2ccccc2)o1	-3.8	-5.0	-5.0	-1.4	-6.9	2.8	53.0	2.9
C=C[C@H]1[C@H](OC2OC(CO)C(O)C(O)C2O)OC=C(C(=O)OC)[C@H]1C[C@H]1CC(=O)C[C@H](CC(=O)CCc2ccc(O)cc2)O1 (stereo not given in full)	.	5.1	-6.2	-4.2	-1.2	7.7	0.6	-0.2
Cc1cc(C2=NNC(=NCc3ccccc3)SC2)c(C)n1-c1c(C)n(C)n(-c2ccccc2)c1=O	-3.2	7.1	.	-0.7	.	-23.5	7.8	.
CCOC(=O)C1=C(C)NC(C)=C(C(=O)OCC)C1C(=O)OCC(=O)NCCc1ccccc1	4.4	-49.9	0.2	.	-6.8	.	.	-0.4
CCCOc1ccc(C2C(C(=O)c3cc4ccccc4o3)=C(O)C(=O)N2c2cc(C)on2)cc1OC (stereo not given)	0.2	11.3	-5.3	5.1	-2.0	-1.6	2.4	-0.3
N#Cc1ccccc1S(=O)(=O)N1CCN(C(=O)c2cn(-c3ccccc3)nc2-c2cccnc2)CC1	0.4	2.5	-2.2	.	.	.	.	0.5
Cc1ccc(NC(=O)C2CCCN(S(=O)(=O)c3ccc4c(c3)oc(=O)n4C)C2)nc1 (stereo not given)	-15.7	3.9	10.7	-0.1	-1.1	-1.9	-2.3	-0.8
CCOC(=O)Cn1cc(Cl)cc(C(=O)Nc2ccccc2)c1=O	-0.7	9.0	.	0.8	-6.3	2.0	30.3	-1.8
CCN(CC(=O)Nc1c(F)cccc1F)C(=O)CCNC(=O)c1ccccc1OC	-9.2	2.1	-2.7	.	-3.4	1.3	-4.6	1.7
O=C(CSc1nnc(SCc2ccc(Cl)cc2)s1)N/N=C/c1c(Cl)cccc1Cl	0.4	.	-0.6	-1.3	0.6	20.5	-3.5	0.2
CCOc1ccc(N(CC(=O)Nc2ccccc2C(=O)N2CCCC2)S(C)(=O)=O)cc1	-3.7	3.0	-1.4	-1.0	-0.8	-13.6	5.3	0.1
COc1ccc2cnn(CCOc3cc(C)ccc3C(C)C)c(=O)c2c1OC	-7.8	0.9	12.8	3.2	-0.3	37.0	-2.0	0.0
Cc1ccc(NC(=O)CCCN2C(=S)NC(C)(C)CC2C)cc1 (stereo not given)	-0.6	-0.2	-6.0	2.9	0.1	-3.7	17.6	-0.7
CC(=O)c1cccc(N=C2NC(=O)C(CO)(CO)S2)c1	3.5	3.7	-4.9	1.3	8.3	-11.5	2.9	-0.8
CCCOc1ccc(CCN2CCC(=O)NC2=O)cc1C	0.7	2.5	-1.0	-0.4	-11.5	15.3	-6.3	1.2
CCC(C)C1NC(=S)N(C2CCCCC2)C1=O (stereo not given)	3.0	2.4	-6.8	5.7	-4.1	-12.7	-1.4	0.0
CCN(CC)C(=O)Cn1cc(SCC(=O)Nc2cc(C)on2)c2ccccc21	1.8	5.1	1.4	-1.1	0.4	-11.1	3.8	-0.4
O=C(CSc1nc(=O)n2ccccc2n1)N1CCN(c2ccccc2)CC1	-5.8	4.4	-2.0	1.1	-1.0	-7.3	-12.6	0.5
O=C(Cc1cccs1)N1CCN(S(=O)(=O)c2ccc(F)cc2)CC1	5.4	1.0	-2.5	3.6	-5.8	1.7	7.4	1.2
Cc1ccc(NC(=O)CS(=O)CC(=O)NCCCN(C)c2ccccc2)cc1 (stereo not given)	12.3	2.0	2.8	2.2	-7.1	-5.8	-5.5	0.6
CCCCc1nc2cc(C(=O)NC(C)c3cnn(C)c3)ccc2o1 (stereo not given)	-2.1	1.4	.	5.8	5.3	-5.0	6.6	2.1
CC(=O)NC(c1cccc([N+](=O)[O-])c1)c1ccc2cccnc2c1O (stereo not given)	-2.8	.	97.2*	3.6	2.3	52.4	-10.1	0.2
COCCn1c(C)cc(/C=C(\C#N)C(=O)OC(C)C(=O)Nc2ccc(NC(C)=O)cc2)c1C (stereo not given)	-7.4	-81.3	5.2	-1.2	5.4	9.7	-0.7	0.4
Cc1ccc(NC2=CC(=O)OC(C)C2)cc1 (stereo not given)	4.9	0.3	2.7	-1.9	7.3	-16.0	0.7	0.1
COc1ccccc1N1CCN(C(=O)CSc2ncnc3scc(-c4ccccc4)c23)CC1	6.6	0.0	2.4	-4.0	0.3	20.7	3.4	-0.2
O=C1N(CCCl)c2ccc(Br)cc2C12OCCO2	9.4	0.4	.	?	1.7	-3.1	-2.0	1.5
COc1ccccc1CCC(=O)N1CCN(S(=O)(=O)c2cccc(F)c2)CC1	-2.7	0.9	4.5	-1.3	4.9	3.4	-7.1	0.8
CCCCCCn1c(SCC(=O)c2c(N)n(C)c(=O)n(C)c2=O)nc2ccccc21	-1.3	-1.7	0.8	2.9	8.6	-0.2	-2.7	-0.1
Clc1cccc(Cl)c1/C=C/c1nc2ccccc2[nH]1	7.1	-339.6	12.9	0.0	10.7*	38.6	47.8	0.0
COc1ccc(-c2cn(Cc3ccc(C)cc3)nn2)cc1	-5.4	3.2	0.0	-1.7	-8.6	7.1	-0.3	-2.4
CCNC(=O)Oc1ccc(-c2csnn2)cc1	-1.3	4.1	-4.5	-0.9	0.8	-2.8	-25.0	0.9
CCS(=O)(=O)CCSc1nc(C)cc(C)c1C#N	-3.9	4.2	3.2	3.3	-2.3	-1.1	3.3	-0.1
O=C(Nc1cccc2ncccc12)c1ccccc1[N+](=O)[O-]	7.0	3.7	-0.5	-0.1	-0.5	-9.8	-10.9	-0.4
Cc1cc(CSc2ccccc2C(=O)O)on1	-6.5	1.5	-5.3	-0.6	0.7	-7.7	-5.6	-0.1
O=C(COC(=O)c1ccc(S(=O)(=O)N2CCCC2)cc1)NCc1ccccc1	-3.9	1.3	0.8	1.8	0.7	-0.4	-4.8	0.4
C=CCN(CC=C)CCOc1ccccc1	-0.4	-2.0	-3.5	2.5	-2.8	-22.1	9.0	0.2
CC(C)SCCCOc1ccc(C(C)(C)C)cc1	6.8	0.5	4.8	-1.1	2.9	9.1	-3.0	0.6
CCOC(=O)C1CCCN(S(=O)(=O)CCNC(=O)c2cccc(OC)c2)C1 (stereo not given)	-0.4	4.1	-3.0	0.1	-5.6	9.4	-1.2	-0.3
C[C@H](NC(=O)Cc1cccc2ccccc12)C(=O)N1CCCN(C)CC1	-3.4	0.4	-9.6	3.4	-0.3	0.9	-24.0	1.0
O=C(Cc1ccccc1)N/N=C/c1cc(Br)cc(Cl)c1O	7.7	.	.	18.1*	-2.7	54.0	114.4*	-0.2
COc1ccc(S(=O)(=O)N2CCCC(C(=O)N3CCN(C)CC3)C2)cc1Cl (stereo not given)	-2.1	0.0	-1.3	1.5	-2.7	10.6	2.0	0.1

# The list continues:
canonical_smiles	Beta2AR agonist	UCH37 inh	Beta apoptosis	RanGTP-Impb inh	LANA-H2B inh	T cruzi repl	Calb FLC	Bfl-1 A1 inh
O=C(COc1ccc([N+](=O)[O-])cc1)N(Cc1cccs1)C1CCS(=O)(=O)C1 (stereo not given)	0.9	3.3	0.7	-0.4	4.7	14.9	33.6	-0.4
Cc1ccsc1/C=C1\SC(N2CCOCC2)=NC1=O	11.4	4.3	-2.9	1.1	5.5	9.9	-1.0	-0.6
CCOC(=O)c1cc(C#N)c(SCC(=O)c2cc(C#N)c(SC)nc2C)nc1C	2.1	-12.5	1.3	19.8*	-1.0	41.0	-2.1	0.4
Cn1cccc1C(=O)NCC(c1ccc(F)cc1)N1CCOCC1 (stereo not given)	7.7	-1.6	-4.5	4.6	0.1	6.1	0.3	0.3
Cc1ccc(-n2nc(CC#N)c(C#N)c2N)cc1	3.5	4.3	.	2.7	-0.7	-8.8	8.7	0.4
COc1cc(OC)cc(C(=O)NC(=S)Nc2cccnc2)c1	20.6	-2.4	1.5	-0.8	1.1	-3.0	5.8	-11.3
O=C(NCCCCc1ccccc1)C12CN(Cc3ccccc3)CC1C(c1cccc([N+](=O)[O-])c1)=NO2 (stereo not given)	0.0	4.9	3.4	-2.4	0.0	?	-4.2	0.8
O=S(=O)(Nc1cc(Sc2cccc3cccnc23)c(O)c2ccccc12)c1ccc(F)cc1	.	7.3	101.9*	-2.7	4.1	53.1	2.1	0.4
